# VDR inhibitor: vitamin D3 receptor (human) inhibition; VDR-SRC2-3 peptide fluorescence polarization, 2 h; Potency, µM, without a hit: max response, negative = inhibition, most hits filed as inhibitors; 400,000 compounds, 0.93% hits; active means well fitted inhibition curve with a large enough effect; inconclusive means small, poorly fitted or top-dose-only effect, or another doubt; inactive means no such curve, though single readings can be large or run the other way; further: series mostly up to about 120 µM
# Target sequence (P11473 whole entry, looked up): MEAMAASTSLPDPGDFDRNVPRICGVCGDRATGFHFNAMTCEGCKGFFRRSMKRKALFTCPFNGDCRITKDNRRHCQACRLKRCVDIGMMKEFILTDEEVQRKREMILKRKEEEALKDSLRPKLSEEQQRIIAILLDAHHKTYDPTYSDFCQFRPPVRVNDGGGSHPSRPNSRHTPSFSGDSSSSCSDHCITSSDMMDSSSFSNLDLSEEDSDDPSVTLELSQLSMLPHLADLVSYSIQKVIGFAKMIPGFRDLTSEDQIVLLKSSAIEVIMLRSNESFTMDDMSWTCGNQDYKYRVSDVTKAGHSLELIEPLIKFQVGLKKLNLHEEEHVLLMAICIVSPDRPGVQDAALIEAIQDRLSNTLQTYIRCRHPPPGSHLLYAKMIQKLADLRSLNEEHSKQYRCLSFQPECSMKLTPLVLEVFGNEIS
#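 VDR–SRC2-3 interaction, FP format. Cmpds 23 nl via pintool, brief spin, 2 h ambient incubation.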
# * hit, by the source's call; ? = inconclusive; & = joins results of further samples. On the % scale 0 is the no-effect control and ±100 the full control effect; potency means the concentration at half of the fitted maximal effect.
SMILES,VDR inhibitor
Nc1cccc2c(O)cccc12,-3.5%
COc1ccccc1C1=NN(C(=O)c2ccccc2)C(c2ccc(Br)cc2)C1 (stereo not given),-1.9%
Cc1ccc(Cn2c(C)c3cnn(CC(=O)NC4CCCC4)c(=O)c3c2C)cc1,-5.8%
CN1CCN(Cc2nc(N)nc(Nc3ccc4c(c3)OCCO4)n2)CC1,2.7%
CC(Sc1nnc2n1CCCCC2)C(=O)Nc1cccc(S(=O)(=O)N2CCOCC2)c1 (stereo not given),2.6%
COC(=O)c1cccc(N(CC(=O)NCC2CCCO2)C(=O)CCC(=O)Nc2cc(C)on2)c1 (stereo not given),?
CCc1nnc(NC(=O)c2nc(S(=O)(=O)Cc3ccccc3)ncc2Cl)s1,22.4µM*
O=C(NCC1CCCN1S(=O)(=O)c1cccs1)c1ccccc1 (stereo not given),2.6%
COc1ccc(NC(=O)c2sc3nc(C)c(C(=O)Nc4ccc(C)cc4C)c(-c4sccc4C)c3c2N)cc1,-7.1%
COC(=O)C1=C(C)N(CCCC(=O)O)C(=O)NC1c1ccccc1OS(=O)(=O)c1ccc([N+](=O)[O-])cc1 (stereo not given),6.3%
O=c1oc2ccccc2c(Nc2ccccc2)c1[N+](=O)[O-],21.5%
Cc1cc2c(cc3c(SCc4nc(-c5ccccc5)oc4C)nnc(C)n32)o1,6.4%
Clc1cccc(Cc2ccc(Cl)nn2)c1,-19.6%
CSc1nc(C)c(CCOC(=O)c2cccc(C)c2)c(=O)[nH]1,-15.7%
CC(C)(C)C(=O)Cn1c(=N)n(Cc2ccccc2)c2ccccc21,5.7%
O=C(O)c1cccc(NC(=O)c2ccc(CN3C(=O)c4ccccc4C3=O)cc2)c1,-2.7%
NC(=O)[C@H]1CC2(CC(c3cccc(NC(=O)c4ccccc4)c3)=NO2)CN1C(=O)[C@H]1CCC(=O)N1 (stereo not given in full),10.8%
Cc1nn(-c2ccc(F)cc2)c(Cl)c1/C=C(\CC(=O)O)c1nc2ccccc2s1,18.9%
CCOC(=O)CC1=CC(C)(CC(=O)OCC)C(C#N)(C#N)C(N)=C1C#N (stereo not given),-4.9%
Cc1cc(C)c2oc(C(=O)N3CCN(C)CC3)cc(=O)c2c1,1.3%
CC[n+]1cc(-c2ccccc2)nc(N2CCOCC2)n1,-4.0%
COc1ccccc1NC(=O)CSc1nnc(CNC(=O)c2cccs2)o1,-15.8%
Cc1ccccc1-c1nc(C(=O)NCC2CCCO2)cc2c1[nH]c1ccccc12 (stereo not given),0.0%
COc1ccc(S(=O)CC(=O)Nc2ccccc2Cl)cc1 (stereo not given),-10.3%
CN(C)c1ccc(-c2cncnc2NCc2ccccc2)cc1,-4.4%
N#Cc1c(-c2ccc(Cl)cc2Cl)nc2n(c1=O)CCS2,-2.2%
CCOc1ccc(C(c2c(O)cc(C)n(CCOC)c2=O)N2CCN(c3ccccc3F)CC2)cc1 (stereo not given),-21.4%
O=C(CC1C(=O)NCCN1Cc1ccc(-c2ccccc2)cc1)NC1CCC1 (stereo not given),?
CC(=O)NC1C(OC(=O)/C=C/c2ccccc2)OC(COC(C)=O)C(OC(C)=O)C1OC(C)=O (stereo not given),2.2%
Nc1cccc2c1C(=O)N(C(=O)/C=C/c1cccc(F)c1)C2=O,39.8µM*
CCOc1ccccc1OCCOc1cccc(C(F)(F)F)c1,-7.8%
COc1cc(C2C(C#N)=C(N)N(c3cccnc3)C3=C2C(=O)CC(C)(C)C3)ccc1O (stereo not given),-0.4%
Cc1ccc2oc(=O)c3cnn(CC(=O)N(C)c4ccc(F)cc4)c3c2c1,-10.6%
COc1ccc(C(=O)NCc2cn3ccccc3n2)cc1,5.0%
CCOc1ccccc1NC(=O)CSc1nc(=O)n(CCCN2CCOCC2)c2c1CCC2,2.7%
Cn1c(=O)c2c(nc(CN3CCc4ccccc4C3)n2CCCO)n(C)c1=O,7.2%
CCOC(CNC(=O)CN1C(=O)COc2ccc(S(=O)(=O)N3CCCC3)cc21)OCC,2.9%
CCc1nn(CC(=O)N2CCN(Cc3ccc4c(c3)OCO4)CC2)c(=O)c2cc3occc3n12,1.6%
Cc1ccc(-n2ncc3c(=O)n(Cc4cccc(C(F)(F)F)c4)cnc32)cc1C,5.5%
O=C(CCNC(=O)c1ccccc1Cl)Nc1ccc(Br)c(C(F)(F)F)c1,-5.5%
O=C(C1CCC(Cn2c(=O)c3sccc3n(Cc3ccccc3F)c2=O)CC1)N1CCCCC1 (stereo not given),8.9%
CC(C)OC(=O)c1cccc2c1C(=O)c1ccccc1-2,-1.0%
CCOC(=O)CNC(=O)/C=C/c1c(Cl)cccc1Cl,-17.3%
Cc1cc2oc(=O)cc(CN3CCN(S(=O)(=O)c4cccs4)CC3)c2cc1C(C)C,-14.6%
Cc1[nH]n(-c2ccccc2)c(=O)c1/C=N/c1ccccn1,3.2%
CCOC(=O)c1cccc(NC(=O)C2CCN(S(=O)(=O)c3c(C)noc3/C=C/c3ccc(C)cc3)CC2)c1,24.7%
CSc1nc(SCC(=O)NC(c2ccccc2)c2ccccc2)c2c3c(sc2n1)CN(C)CC3,-11.6%
COc1cc(-c2noc(C)c2C(=O)NCc2ccc3c(c2)OCO3)cc(OC)c1OC,-8.0%
Cc1ccccc1C(=O)N1CCN(c2ccc(NC(=O)c3ccccc3[N+](=O)[O-])cc2)CC1,13.1%
COc1ccccc1C(=O)NCCn1cc(SCC(=O)Nc2cc(C)on2)c2ccccc21,-16.6%
Brc1ccc(COc2cccc3cccnc23)cc1,-6.6%
CC(C)(C)OC(=O)C[C@@H]1C/C=C\C[C@H](CC(=O)N(CCO)Cc2ccccc2)C(=O)N2CCC[C@@H]2COC1=O,8.1%
CCC(C(=O)NC1CCCC1)N(Cc1ccccc1Cl)C(=O)c1snc(C(N)=O)c1N (stereo not given),-6.0%
CCCCN(CCCC)S(=O)(=O)c1ccc(SCC(=O)OCC)c([N+](=O)[O-])c1,-8.2%
CCn1cc(C(=O)O)c(=O)c2cc(F)c(N3CCN(C(=S)NC(=O)c4ccc(OC)cc4)CC3)cc21,-14.1%
COc1ccc(N(CC(=O)N2CCN(c3ccc(F)cc3)CC2)S(=O)(=O)c2c(C)n[nH]c2C)cc1,5.0%&-4.4%
CCC(=O)N1N=C(c2ccc(C)o2)CC1c1ccc(Br)cc1 (stereo not given),-16.4%
O=c1[nH][nH]cc1C=Nc1cc(Cl)ccc1O,-13.4%
Cc1ccc(-c2cc(C(=O)N3CCN(C(=O)c4ccco4)CC3)[nH]n2)c(C)c1,8.3%
Cc1ccc(NC(=O)C(=O)NCC(c2cccnc2)N2CCN(Cc3ccccc3)CC2)cc1C (stereo not given),9.3%
# More compounds
SMILES,VDR inhibitor
CC(C)C(C(=O)C=[N+]=[N-])N1C(=O)c2ccccc2C1=O (stereo not given),-13.0%
O=C(COc1ccc(Cl)cc1Br)Nc1ccncc1,9.4%
Cc1ccc(C(c2c(C)n(C)n(-c3ccccc3)c2=O)c2c(C)n(C)n(-c3ccccc3)c2=O)s1,14.3%
O=C(CN1CCc2ccccc21)NC(=O)NC1CCCCC1,2.2%
COc1ccc(NS(=O)(=O)c2ccc(N3CCOCC3)c(NC(=O)c3cccc(F)c3)c2)cc1,-8.9%
COCCCNCCCCSc1ccc(Cl)cc1,-8.5%
CSc1cccc(CN2CCCC(CO)(Cc3cccc(Cl)c3)C2)c1 (stereo not given),4.3%
CC(Sc1nc2c(c(=O)[nH]1)CCCC2)C(=O)Nc1ccccc1C#N (stereo not given),-1.2%
Cc1cccc(Cn2c(COc3ccc(Cl)cc3)nc3ccccc32)c1,-8.1%
Cn1c(OCc2cccnc2)nc2c1c(=O)n(Cc1ccccc1)c(=O)n2C,-7.1%
O=C(Cn1c(-c2cccs2)cc2cc(F)ccc21)NCCCN1CCN(c2ccc(F)cc2)CC1,1.7%
Cc1ccccc1S(=O)(=O)c1c(C)cc(C)n(C(C)C)c1=O,12.6%
CC(C)c1ccc(CCNC(=O)CSC(=S)N2CCCC2)cc1,-18.8%
COc1ccc(-n2nc(C(=O)NCC(=O)N3CC(C)CC(C)C3)c3ccccc3c2=O)cc1OC (stereo not given),13.4%
COc1ccc(NC(C)=[N+](C)CCNS(=O)(=O)c2ccc(Cl)cc2)cc1Cl,10.5%
Cn1cc(C2CC(c3ccccc3)=NN2C(=O)c2ccccc2)c2ccccc21 (stereo not given),?
NC(=O)CSc1nc2c(sc3ccccc32)c(=O)n1CCCC(=O)NCC1CCCO1 (stereo not given),-0.3%
O=S(=O)(c1cccs1)N1CCN(c2nc(-c3cccs3)nc3ccccc23)CC1,-2.1%
Cc1cc(C)cc(C(=O)N/N=C/c2ccoc2)c1,7.2%
COc1ccc(NC(=O)C2CCC(=O)N2C(=O)OCc2ccccc2)cc1 (stereo not given),8.1%
COc1cc(O)c(C(CCN2CCOCC2)c2ccc3c(c2)OCO3)c(OC)c1 (stereo not given),7.8%&-19.4%
Nc1ccccc1Sc1ccc(C(=O)c2ccccc2C(=O)O)cc1[N+](=O)[O-],-29.8%
CCOC(=O)c1ccc(NCc2nc3ccccc3[nH]2)cc1,-15.0%
Cn1c(CNC(=O)Nc2ccccc2Cl)nnc1SCc1ccccc1,2.4%
COc1cccc(C=Nc2ccc3c(c2)CCC3)c1O,-5.8%
CCCCN1CCCCC1C(=O)Nc1c(C)cccc1C (stereo not given),?
CCC1=Nc2cc(C(=O)NCC3CCCO3)ccc2Sc2ccc(Br)cc21 (stereo not given),-9.0%
O=C(Nc1nc2ccccc2n1CCN1CCOCC1)c1ccccc1,-21.5%
Cc1c(OCC(=O)NC(Cc2ccc(Cl)cc2)C(=O)O)ccc2c3c(c(=O)oc12)CCC3 (stereo not given),-23.7%
Cc1ccc(C)c(NC(=O)CCc2c(C)n(C)c3cc(-c4ccccc4C)nn3c2=O)c1,4.5%

# Printed as active in VDR inhibitor, of those listed so far:
SMILES,VDR inhibitor
CCc1nnc(NC(=O)c2nc(S(=O)(=O)Cc3ccccc3)ncc2Cl)s1,22.4µM*
Nc1cccc2c1C(=O)N(C(=O)/C=C/c1cccc(F)c1)C2=O,39.8µM*

# The listing continues.
SMILES,VDR inhibitor
COc1ccc(C2=NOC(C(=O)Nc3cc(Br)ccc3O)C2)cc1OC (stereo not given),-2.5%
O=C(Nc1nc(-c2ccc(F)cc2)cs1)C1CCCO1 (stereo not given),10.8%
Cn1ccsc1=NC(=O)c1ccccc1OC(F)F,6.8%
Cc1ccccc1-c1noc(-c2cccnc2N(C)Cc2ccc(Cl)cc2)n1,-0.5%
O=C(Nc1ccon1)c1csc2ccccc12,-11.6%
Cn1c(SCC(=O)NCc2ccccc2)nc2ccccc21,3.5%
Cc1ccc(S(=O)(=O)N2CCC(N3CCCCCC3)CC2)cc1,-10.9%
O=C(CSc1n[nH]c(-c2cccs2)n1)N1CCCc2ccccc21,0.6%
CCN(CC(=O)Nc1cc(Cl)ccc1C)c1ncnc2sc(C)c(C)c12,-12.6%
CCOc1ccc(OCC(=O)Nc2nccs2)cc1,12.4%
Cc1cc(C)c2c(CC(=O)N(Cc3ccc(Cl)cc3)Cc3ccco3)coc2c1,20.3%
Cc1ccc[n+](-c2nc([O-])sc2/C=N/Nc2ccc([N+](=O)[O-])cc2)c1,-6.2%
Cc1cc(CNC(=O)CC2C(=O)NCCN2Cc2ccc(-c3ccccc3)cc2)nn1C (stereo not given),-9.3%
COC(CCN(C)C)(c1ccccc1)c1ccccc1,14.3%
Cc1cccc(NC2=CC(=O)CC(C)(C)C2)c1C,-19.6%

# Seven neighbouring records out of the list so far:
SMILES,VDR inhibitor
COc1ccc(C2=NOC(C(=O)Nc3cc(Br)ccc3O)C2)cc1OC (stereo not given),-2.5%
O=C(Nc1nc(-c2ccc(F)cc2)cs1)C1CCCO1 (stereo not given),10.8%
Cn1ccsc1=NC(=O)c1ccccc1OC(F)F,6.8%
Cc1ccccc1-c1noc(-c2cccnc2N(C)Cc2ccc(Cl)cc2)n1,-0.5%
O=C(Nc1ccon1)c1csc2ccccc12,-11.6%
Cn1c(SCC(=O)NCc2ccccc2)nc2ccccc21,3.5%
Cc1ccc(S(=O)(=O)N2CCC(N3CCCCCC3)CC2)cc1,-10.9%

# Going on with the list:
SMILES,VDR inhibitor
CC(NC(=O)c1ccc(Br)o1)C1CC2CCC1C2 (stereo not given),-7.0%
COc1ccccc1OCCNC(=O)CN1C(=O)NC2(CCCCC2)C1=O,19.3%
Cc1ccc2[nH]c3c(NCc4ccco4)ncnc3c2c1,-1.1%
CS(=O)(=O)N1CCc2cc(C(=O)Nc3ccc(Br)cc3)ccc21,6.9%
COC(=O)C(C(=O)OC)[C@@H]1C=C[C@H](C[N+](=O)[O-])N(C(C)=O)C1,-13.7%
Cc1ccc(-c2nnn(CC(=O)N(CC(=O)NCCC(C)C)c3ccc(F)cc3)n2)cc1,6.0%
CC1CN(CCC(=O)Nc2ccccc2F)CC(C)O1 (stereo not given),-12.8%
CC(C)c1nnc(NC(=O)c2nc(S(=O)(=O)Cc3ccccc3)ncc2Cl)s1,15.8µM*
O=C(CC(c1cccs1)S(=O)(=O)c1ccccc1)c1ccc(F)cc1 (stereo not given),6.3%
CSC1=N/C(=C\c2ccc(Br)o2)C(=O)S1,2.4%
CC1CCCN(S(=O)(=O)c2cccc([N+](=O)[O-])c2)C1 (stereo not given),21.1%

# An excerpt from above in order of their number in VDR inhibitor, smallest number first:
SMILES,VDR inhibitor
CC(C)c1nnc(NC(=O)c2nc(S(=O)(=O)Cc3ccccc3)ncc2Cl)s1,15.8µM*
CCc1nnc(NC(=O)c2nc(S(=O)(=O)Cc3ccccc3)ncc2Cl)s1,22.4µM*
Nc1cccc2c1C(=O)N(C(=O)/C=C/c1cccc(F)c1)C2=O,39.8µM*

# Not all compounds are listed; count on the stated rates, not on these rows.
